Source: PubChem BioAssay (several laboratories)
PrP UTR inh – suppresses PrP 5' UTR mRNA reporter expression. inhibition, % (concentration not given with the values). cell-based PrP 5' UTR mRNA reporter, plate reader. hit rate 0.35% among 340,000;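 active = every replicate at 50% or more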;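 also: 0 = median of the neutral control wells; tested in H4 reporter cells; numbers are from one replicate; inactives centre near -14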
Sa RN4220 lethal – kills Staphylococcus aureus RN4220. S. aureus RN4220 growth, OD600, 16 h. inhibition, % (no concentration beside the values). hit rate 0.33% among 330,000;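 active = z-score of -3 or lower and OD600 up to 0.18 on both plates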;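 also: plate controls were untreated cells for no effect and reference antibiotic for full effect; stock transfer was 100 nL into about 80 µL; one replicate is shown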
Mtb hypoxia inh – reduces hypoxia-regulated biosensor signal in M. tuberculosis; M. tuberculosis hypoxia-regulated fluorescent reporter, fluorescence; fluorescence inhibition, % (no concentration beside the values); hit rate 0.1% among 300,000; AID 1159583;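 active = 35 to 45% if threefold the growth effect, above 45% if 1.5-fold the growth effect; inactive = the rest, general growth blockers included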;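 also: wells of about 50 µL received 100 nL stock; 0% = vehicle wells and 100% = reference inhibitor wells; whole bacteria with a GFP reporter of the hypoxia response; strong numbers were not always called active; many hits fall short of the cut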
BJeLR lethal – kills HRASV12-expressing BJeLR cells. BJeLR (HRASV12) viability, CellTiter-Glo ATP luminescence, 48 h; reference of the scale not given here. inhibition, % (test concentration not listed). hit rate 0.17% among 300,000. AID 1554;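 active = replicate mean above 50%; inconclusive = above 50% but judged a plate artefact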;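 also: 50 nL library stock added to about 25 µL; numbers are from one replicate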
Sa ugtP lethal – kills S. aureus RN4220 lacking UgtP. S. aureus RN4220 ugtP deletion, OD600 growth, 16 h; some inactives read as strong as hits. growth inhibition, % (test concentration not listed). hit rate 0.54% among 330,000. AID 1259309;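 active = z-score under -3 and OD600 up to 0.15 on both plates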;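 also: plate controls were untreated wells for no effect and antibiotic for full effect; wells of about 80 µL received 100 nL stock; the first replicate is given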
Autofluor counter – compound fluorescence in toxin protease inhibitor counterscreen; hit rate 3.1% among 360,000; fluorescence intensity (test concentration not listed); AID 624483; compound autofluorescence counterscreen, microsphere flow cytometry; stronger effect = higher value;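 active = at least 3 SD above the mean of all compounds, about 16000 in these data; inconclusive = too few beads counted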;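 also: 100 nL of 1 mM stock went into each well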
Mtb hypoxia inh growth – recorded beside Mtb hypoxia inh, whose call it bears; growth inhibition, %; measured here: M. tuberculosis growth (absorbance);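 0% = vehicle and 100% = reference antibiotic; read after six days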
Starred values were filed as active, the others as inactive; u = inconclusive; x = no result given; & = joins results of further samples. Not a hit list. Share with any hit: about 4%.

The opening 11 compounds as a preview:
Every second line gives: PrP UTR inh	Sa RN4220 lethal	Mtb hypoxia inh	Mtb hypoxia inh growth	BJeLR lethal	Sa ugtP lethal	Autofluor counter
1: Cc1ccc(C2OCC3(CO)COC(c4ccc(C)cc4)N23)cc1 (centres undefined)
 : -15	6.3	4	9	1	0	10756
2: CC(C)c1nnc(NC(=O)c2nc(S(=O)(=O)Cc3ccc(F)cc3)ncc2Cl)s1
 : 2	x	x	x	3	x	5523
3: COc1ccc2[nH]c(=O)c(-c3noc(-c4ccc(F)cc4)n3)cc2c1
 : -48	5.7	14	0	1	-16	10161
4: Cc1ccc(NC(=O)[C@@H](NC(=O)c2cccc(S(=O)(=O)N3CCOCC3)c2)C(C)C)cc1C
 : -13	4.4	9	1	0	2	2314
5: CSc1c(SCc2ccccc2)cnn(-c2ccccc2)c1=O
 : -13	0.4	6	6	1	5	2028
6: COC(CNC(=O)c1ccc(CS(=O)(=O)c2ccc(C)cc2)o1)OC
 : 12	-0.5	-7	11	-2	8	3621
7: COc1ccc(Nc2cc(=O)n(C3CCCCC3)c(=O)[nH]2)c(OC)c1
 : -1	-14	4	4	8	-2	u
8: Cc1ccc(S(=O)(=O)N2C(=O)CCC2C(=O)NCc2ccco2)cc1 (centres undefined)
 : -4	-0.8	0	12	8	-2	8209
9: Cc1ccc(NC(=O)NC(=O)CSc2nnc(-c3ccc(OC(F)F)cc3)n2N)c(C)c1
 : -67	-3.9	-10	-8	-8	3	2204
10: NC(=O)COc1ccc(-c2noc(COc3ccccc3[N+](=O)[O-])n2)cc1
 : -22	3.2	3	3	-2	3	4339
11: O=C(C/C=N\O)Nc1ccc(Oc2ccccc2)cc1
 : -15	x	x	x	1	x	3607

Main list, repeating the preview:
Every second line gives: PrP UTR inh	Sa RN4220 lethal	Mtb hypoxia inh	Mtb hypoxia inh growth	BJeLR lethal	Sa ugtP lethal	Autofluor counter
1: Cc1ccc(C2OCC3(CO)COC(c4ccc(C)cc4)N23)cc1 (centres undefined)
 : -15	6.3	4	9	1	0	10756
2: CC(C)c1nnc(NC(=O)c2nc(S(=O)(=O)Cc3ccc(F)cc3)ncc2Cl)s1
 : 2	x	x	x	3	x	5523
3: COc1ccc2[nH]c(=O)c(-c3noc(-c4ccc(F)cc4)n3)cc2c1
 : -48	5.7	14	0	1	-16	10161
4: Cc1ccc(NC(=O)[C@@H](NC(=O)c2cccc(S(=O)(=O)N3CCOCC3)c2)C(C)C)cc1C
 : -13	4.4	9	1	0	2	2314
5: CSc1c(SCc2ccccc2)cnn(-c2ccccc2)c1=O
 : -13	0.4	6	6	1	5	2028
6: COC(CNC(=O)c1ccc(CS(=O)(=O)c2ccc(C)cc2)o1)OC
 : 12	-0.5	-7	11	-2	8	3621
7: COc1ccc(Nc2cc(=O)n(C3CCCCC3)c(=O)[nH]2)c(OC)c1
 : -1	-14	4	4	8	-2	u
8: Cc1ccc(S(=O)(=O)N2C(=O)CCC2C(=O)NCc2ccco2)cc1 (centres undefined)
 : -4	-0.8	0	12	8	-2	8209
9: Cc1ccc(NC(=O)NC(=O)CSc2nnc(-c3ccc(OC(F)F)cc3)n2N)c(C)c1
 : -67	-3.9	-10	-8	-8	3	2204
10: NC(=O)COc1ccc(-c2noc(COc3ccccc3[N+](=O)[O-])n2)cc1
 : -22	3.2	3	3	-2	3	4339
11: O=C(C/C=N\O)Nc1ccc(Oc2ccccc2)cc1
 : -15	x	x	x	1	x	3607
12: CCN(C(=O)CN1CCOCC1)C1(C)C(=O)c2ccccc2C1=O
 : -10	0.9	2	16	-12	2	2390
13: CCc1nnc(NC(=O)CSc2ccc(-c3nc4ccc(C)cc4[nH]3)cn2)s1
 : -33	4.3	4	-5	10	4	9163
14: O=C(O)c1cccc(S(=O)(=O)NCCC(c2ccccc2)c2ccccc2)c1
 : -24	20	8	1	-11	4	4836
15: Cc1ccsc1C(=CCCN1CCC[C@@H](C(=O)O)C1)c1sccc1C
 : -4	x	x	x	2	x	4523
16: COc1ccc(C(C)=O)cc1CN1C(=O)NC2(CCCCCCC2)C1=O
 : -44	2.3	-5	2	3	5	4080
17: CCOP(=O)(OCC)c1nc(-c2ccccc2Cl)oc1N1CCOCC1
 : -37	-4.0	-9	3	0	-2	2281
18: Cn1nc2c3ccccc3n(Cc3ccc(F)cc3)c2nc1=S
 : -12	1.9	-15	-12	-7	2	3976
19: O=C(c1cc(COc2ccc3ncccc3c2)on1)N1CCC(O)CC1
 : -26	2.1	-2	2	11	2	3408
20: Cn1c(=O)c2c(SCC(=O)NCc3ccco3)nc(-c3ccccc3Cl)nc2n(C)c1=O
 : -25	3.8	0	-2	1	-2	5919
21: Oc1ccccc1C=NNC(=S)NC1CC2C=CC1C2 (centres undefined)
 : x	2.1	-5	9	x	-8	2907
22: COc1ccc(-c2nn(-c3ccccc3)cc2C(=O)N2c3ccc(C)cc3C3CN(C)CCC32)cc1 (centres undefined)
 : 6	2.6	2	4	2	-2	2386
23: FC(F)(F)c1ccc(NN=Cc2cccnc2)nc1
 : x	0.1	5	-5	x	4	x
24: COc1ccc(CNC(=O)CC2C(=O)N(Cc3ccc(OC)cc3)CC2Cc2ccccc2)cc1 (centres undefined)
 : x	2.9	3	2	x	0	x
25: O=C(c1c[nH]c2ccccc12)C(Cl)c1ccccc1 (centres undefined)
 : 5	x	x	x	8	x	4254
26: O=C(O)c1cccc(NC(=S)NC(=O)C(c2ccccc2)c2ccccc2)c1
 : -13	5.2	x	x	0	10	4718
27: NC(=O)C1CC2(CC(c3cccc(NC(=O)C4CCC(=O)N4)c3)=NO2)CN1C(=O)CC(c1ccccc1)c1ccccc1 (centres undefined)
 : x	3.6	-12	-2	x	-2	x
28: COc1ccc(-c2nnc(SCc3ccc(C(=O)O)cc3)n2C)cc1OC
 : -29	-0.9	9	9	-3	7	3565
29: COc1ccc(O)c(-c2cc(-c3ccccc3[N+](=O)[O-])[nH]n2)c1
 : -17	3.0	10	5	5	6	1959
30: CCn1c(SCC(=O)NCc2ccco2)nnc1-c1cccs1
 : -10	1.1	3	-2	x	-1	19582*
31: O=C(C1CC(c2ccc(Cl)c(Cl)c2)=NO1)N1CCC2(CC1)OCCO2 (centres undefined)
 : -94	28	0	1	-7	16	7980
32: Cn1c(=O)c2c(SCC(=O)N3CCCC3)nc(-c3ccccc3)nc2n(C)c1=O
 : -16	0.5	12	-1	-5	8	6072
33: COC(=O)C1CC2CCC(O)CC2N1Cc1ccc(C(C)(C)C)cc1 (centres undefined)
 : x	8.6	14	12	x	9	x
34: CN1C(=O)S/C(=C\c2ccc(-n3cncn3)cc2)C1=O
 : -10	7.9	-9	-13	-5	8	2001
35: COc1ccc(NCC(=O)NN=C2CCCC(C)C2)cc1 (centres undefined)
 : x	2.2	13	6	x	8	x
36: Cc1ccccc1C(=O)Nc1ccc(Cl)cn1
 : -82	3.0	10	17	5	0	9148
37: COc1ccccc1CNC(=O)c1cccc(NC(=O)c2ccccc2)c1
 : -26	3.5	2	-1	-6	11	2672
38: Cc1cc(NC(=O)CN2C(=O)NC(C)(CC(C)C)C2=O)no1 (centres undefined)
 : -30	0.9	19	7	x	-1	3850
39: COc1cccc(NC(=O)CNC(=O)c2ccc(C)o2)c1
 : -27	1.3	3	-4	7	11	3324
40: CCC(C)Sc1ccc([C@@H]2[C@@H]3C(=O)N(C)C(=O)[C@@H]3[C@]3(C(=O)OC)CCCCN23)cc1OC (some centres undefined)
 : -11	x	x	x	-11	x	3198
41: Cc1ccc(-c2nnn(CCC(=O)Nc3ccc4c(c3)OCO4)n2)cc1
 : -12	-3.6	-7	-3	-8	-4	11227
42: CC(=NNC(=O)COc1ccccc1-c1ccccc1)c1cccnc1
 : x	9.2	15	7	x	7	x
43: C=CCN1C(=O)/C(=C2/Sc3ccc(OC)cc3N2C)SC1=Nc1ccc(OC)cc1
 : x	3.0	-1	1	3	1	x
44: Cc1cc(C)c(NC(=O)CN(C)C(=O)C2CC(=O)N(c3cccc4ccccc34)C2)c(C)c1 (centres undefined)
 : -2	2.3	4	-3	x	4	2894
45: O=C(O)COc1ccc(/C=C2/SC(=S)N(Cc3ccccc3)C2=O)cc1
 : -29	2.5	10	4	-12	10	3509
46: O=C(O)Cc1ccc(-n2cccc2)cc1
 : -38	3.6	15	9	1	-1	4573
47: COc1ccc(OC)c2c(C)cc(N3CCN(C(=O)c4ccc(C)cc4)CC3)nc12
 : -15	3.3	-6	1	2	10	2675
48: CC1=N/C(=C/c2ccco2)C(=O)O1
 : -71	5.0	4	-2	-4	1	4218
49: Cc1ncsc1C(=O)Nc1cccc(C(F)(F)F)c1
 : -19	2.1	7	-3	-3	8	3667
50: C=CCN1C(=O)[C@H]2CCC=C[C@H]2[C@@H]1c1cccc(C)c1
 : -12	3.7	-2	8	x	3	3606
51: COc1ccc(C2=C(CN(C)C)C(c3ccccc3)c3ccccc3O2)cc1 (centres undefined)
 : -38&0	-3.9&-2.9	x	x	-3&12	-7&7	2655
52: COCCn1c(SCC(=O)NNC(=O)c2ccc(OC)c(OC)c2)nc2ccccc2c1=O
 : -12	4.0	11	-2	4	9	4541
53: CCc1nnc(NC(=O)COc2ccccc2[N+](=O)[O-])s1
 : -31	3.1	10	-10	0	5	3114
54: C/C(=N\N=C1/NC(=O)C(C)S1)c1ccco1 (centres undefined)
 : -18	x	x	x	1	x	4666
55: CCn1nc(C(=O)NCCc2ccc3c(c2)OCCO3)c2ccccc2c1=O
 : -1	1.5	0	4	x	3	3697
56: CCCC(=O)Nc1ccccc1N1CCN(C(=O)c2ccccc2)CC1
 : 2	1.4	0	-1	-20	-2	4003
57: CCCCNC(=O)CCc1nc2cccnc2n1Cc1ccc(OC)cc1
 : -18	-4.5	-5	0	-5	2	3389
58: COc1ccc(/C=N/NC(=O)COc2cccc3cccnc23)cc1OC
 : -9	x	x	x	12	x	4711
59: COc1ccc2[nH]c(=O)c(CN(C(=O)COc3ccccc3)C(C)C)cc2c1
 : -27	3.1	x	x	0	1	2407
60: O=c1c(Cc2ccc(F)cc2)c(O)ccn1Cc1cccc(Cl)c1
 : 3	1.5	x	x	3	0	2617

(listing goes on)
Every second line gives: PrP UTR inh	Sa RN4220 lethal	Mtb hypoxia inh	Mtb hypoxia inh growth	BJeLR lethal	Sa ugtP lethal	Autofluor counter
61: CCCc1cc(=O)[nH]c(SCC(=O)N2CCc3ccccc3C2)n1
 : -1	7.5	-2	4	x	-1	4148
62: O=C(CNC(=O)Cc1ccccc1)N=Nc1c(O)[nH]c2ccc(Br)cc12
 : -9	2.3	11	8	-8	-1	5966
63: COc1ccc(NC(=O)COc2ccc(/C=N/NC(=O)c3cccnc3)cc2OC)cc1
 : -36	x	x	x	-9	x	2553
64: CN(C)CCCNC(=O)C[C@H]1C[C@H](C(=O)N2CCOCC2)[C@@]2(C)c3[nH]c4ccc(Cl)cc4c3CCN2C1=O
 : -8	3.3	1	2	x	3	3620
65: Cc1ccc(Sc2cc(C)nc(-c3ccccn3)n2)cc1
 : -34	x	x	x	13	x	3366
66: CCOC(=O)C1C2COc3ccccc3C2N2C(=O)N(c3ccccc3)C(=O)[C@]12C (some centres undefined)
 : x	5.0&0.7	7&-4	8&6	x	2&-14	x
67: COc1ccc(NC(=S)N(CCCN2CCCCC2)Cc2cccs2)cc1
 : -10	5.2	5	0	17	3	8564
68: CCN(CC(=O)Nc1ccccc1OC)C(=O)CSCc1c(C)noc1C
 : -19	4.1	15	14	-1	7	6148
69: CC1CCCN(C(=O)Cn2cnc3c2c(=O)n(C)c(=O)n3C)C1 (centres undefined)
 : -18	0.3	x	x	-5	3	3530
70: COc1ccc(OCC(=O)Nc2ccc(S(=O)(=O)N3CCN(C)CC3)cc2)cc1
 : -29	5.4	8	-1	4	12	4743
71: Cc1ccc(N(C(=O)c2csnn2)C(C(=O)NC2CCCC2)c2ccccn2)cc1 (centres undefined)
 : -12	4.0	-10	3	4	7	3733
72: O=C(CSc1nnc(-c2ccncc2)n1-c1ccc(Cl)cc1)Nc1ccc(C(=O)O)cc1
 : -15	7.0	2	0	1	-3	3936
73: CN1CCN(C(=O)C2=CC(c3ccc(Br)cc3)CC(OCCCCO)O2)CC1 (centres undefined)
 : x	8.2	0	-1	x	13	x
74: CC1CCC(NC(=O)COc2ccccc2C(N)=O)CC1 (centres undefined)
 : -25	3.6	x	x	0	-1	3203
75: Oc1ccc(CCC2CCCCN2Cc2nc(C3CC3)no2)cc1 (centres undefined)
 : -14	x	x	x	0	x	4323
76: O=C(NCc1cccs1)c1csc2c1CCCCC2
 : -25	-3.5	x	x	-2	-6	u
